Assay outcomes (PubChem BioAssay)
TRPV1 PAM = HTS Assay for Compounds that Act as Potentiators of the Vanilloid Receptor 1; AID 540277, 2011; TRPV1-expressing cells, Fluo-8 calcium influx, capsaicin EC20 potentiation; host cell line not named in the record; control for the full effect not named in the record; 0.02% of 320,000 active; potentiation, % at 8.33 µM; active means potentiation above 80%; inconclusive means 30% to 80%; inactive means below 30%; note: 0% is about no effect
Target sequence (Q8NER1 whole entry, looked up): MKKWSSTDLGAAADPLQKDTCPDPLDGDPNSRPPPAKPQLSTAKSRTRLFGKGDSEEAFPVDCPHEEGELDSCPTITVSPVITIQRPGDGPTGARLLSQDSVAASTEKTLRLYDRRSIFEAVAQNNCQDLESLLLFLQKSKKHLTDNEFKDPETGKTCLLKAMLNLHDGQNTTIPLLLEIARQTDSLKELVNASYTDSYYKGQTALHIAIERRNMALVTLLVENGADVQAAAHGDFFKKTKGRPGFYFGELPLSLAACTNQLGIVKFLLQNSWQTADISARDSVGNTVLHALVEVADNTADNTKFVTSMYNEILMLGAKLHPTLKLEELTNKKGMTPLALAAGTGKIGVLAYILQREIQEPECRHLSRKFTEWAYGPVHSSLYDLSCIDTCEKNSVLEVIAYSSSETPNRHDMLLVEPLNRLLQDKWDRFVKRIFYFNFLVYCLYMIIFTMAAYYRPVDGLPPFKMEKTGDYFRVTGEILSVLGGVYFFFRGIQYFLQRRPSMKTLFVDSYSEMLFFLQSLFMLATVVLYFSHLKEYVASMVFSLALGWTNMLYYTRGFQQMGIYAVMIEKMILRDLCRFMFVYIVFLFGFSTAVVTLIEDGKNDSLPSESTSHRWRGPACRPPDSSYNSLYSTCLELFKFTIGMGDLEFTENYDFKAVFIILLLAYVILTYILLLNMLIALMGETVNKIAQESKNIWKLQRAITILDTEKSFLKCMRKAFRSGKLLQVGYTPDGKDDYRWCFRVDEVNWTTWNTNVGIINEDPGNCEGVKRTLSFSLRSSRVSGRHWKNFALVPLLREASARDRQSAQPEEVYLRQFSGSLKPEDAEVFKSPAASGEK
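Cells expressing TRPV1 were dye-loaded with Fluo-8 and read kinetically: 10 s baseline, 3 min after compound (agonist portion), then 2 min after EC20 capsaicin (allosteric enhancer portion). Calcium-bound dye fluorescence at 480/520 nm.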
D2 ag = Beta-Arrestin HTS for Positive Allosteric Modulators of the Human D2 Dopamine Receptor: Agonists. D(2) dopamine receptor (Homo sapiens), P14416. DiscoveRx PathHunter D2 beta-arrestin, luminescence, 90 min; 100% = 57 uM dopamine signal. activation, % (no concentration beside the values). 0.084% of 360,000 active. AID 624465, 2012; in the data active = activation above about 40%; inconclusive = about 15% to 40%; inactive = below about 15%; note: compound concentration not given in the record; the text of the record calls up to 30% inactive
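DiscoveRx PathHunter D2 beta-arrestin cells (2,100/well) attached overnight, then compound-stimulated 90 min at 37 C in HBSS/10 mM HEPES/0.1% Tween-20 buffer; beta-galactosidase complementation read by luminescence after 1 h at ambient temperature. Dopamine 57 uM final (EC100) as control.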
PINK1 expr mod = A Quantitative High throughput Screen to Identify Chemical Modulators of PINK1 Expression; 0.2% of 410,000 active; PINK1 immunofluorescence, high-content cytometry, 24 h; AID 624263, 2012; Potency, µM (series often up to 76.6 µM), for inactives: at the highest dose activation (PINK1 increase), hits mostly activators; active = well fitted activation curve with a large enough effect; inconclusive = small, poorly fitted or top-dose-only effect; inactive = flat fitted curve, though single readings scatter; cell line not stated here;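 note: potency is the fitted concentration of half-maximal effect; % of control where 0% means no effect; nearly all actives have a fitted effect of over 65% in size; a mitochondrial uncoupler was the plate control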
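PINK1 protein level read as immunofluorescence by microplate cytometer in a fixed, stained stable cell line after 24 h exposure to five compound concentrations, with CCCP as control.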
Sfp PPTase inh = qHTS Assay for Inhibitors of Bacillus subtilis Sfp phosphopantetheinyl transferase (PPTase); Biochemical Sfp PPTase activity, qHTS; AID 1490, 2009; 4'-phosphopantetheinyl transferase ffp (Bacillus subtilis), Q9F4F7; Potency, µM, inactives show max response, negative = inhibition, usual class: inhibitors; 3.5% of 310,000 active; active = well fitted inhibition curve with a large enough effect; inconclusive = small, poorly fitted or top-dose-only effect, or another doubt; inactive = no such curve, though single readings can be large or run the other way;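 note: the enzyme is Sfp with the accession as filed and its product quenches rhodamine fluorescence; potency is the fitted concentration of half-maximal effect; 0% = enzyme reaction without inhibitor and -100% = no enzyme wells; top concentration of the series not given in the record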
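Reaction rates are the 30-min fluorescence difference (ex 525, em 598 nm) in wells containing 15 nM Sfp, 5 uM rhodamine-CoA and 12.5 uM BHQ-2-YbbR at pH 7.6 with 10 mM MgCl2.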
D2 potentiator = Beta-Arrestin HTS for Positive Allosteric Modulators of the Human D2 Dopamine Receptor: Potentiators | potentiation, % (concentration not given with the values) | DiscoveRx D2 beta-arrestin cells, luminescence, 90 min; 100% = 57 uM dopamine signal | D(2) dopamine receptor (Homo sapiens), P14416 | 0.23% of 360,000 active; active = potentiation of 50% or more; inconclusive = 30% to 50%; inactive = 30% or less;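 note: compound concentration not given in the record; tested on top of an EC20 dose of dopamine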
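PathHunter D2 cells, attached overnight at 37 deg C, received compound in DMSO plus dopamine at EC20 (50 nM final) for 90 min at 37 deg C. Beta-arrestin recruitment was read as luminescence after 1 h with detection reagent at ambient temperature.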
Six1-Eya2 inh = qHTS Assay for Inhibitors of the Six1/Eya2 Interaction; activity change, % (test concentration not listed); 0.56% of 360,000 active; AlphaScreen GST-Six1/His-Eya2 binding, biochemical; hits give low values; control for the full effect not named in the record; Homeobox protein SIX1 (Homo sapiens) + Protein phosphatase EYA2 (Homo sapiens), …; in the data active = activity change below about -65%; inconclusive = about -30% to -65%; inactive = above about -30%; note: % is set by controls: 0 for no effect and ±100 for the full control effect; compound concentration not given in the record
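Compounds are tested against tagged Six1 and Eya2 proteins bridged by glutathione donor and nickel acceptor beads; after a one-hour incubation at 37 °C without light, AlphaScreen emission is recorded.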
CtBP-E1A blk = qHTS Assay for Inhibitors of the CtBP/E1A Interaction | CtBP / adenovirus E1A interaction (AlphaScreen) | AlphaScreen GST-E1A/His-CtBP binding, 1536-well; hits give low values; control for the full effect not named in the record | AID 651724, 2012 | activity change, % (test concentration not listed) | 0.49% of 340,000 active; in the data active means activity change below about -65%; inconclusive means about -30% to -65%; inactive means above about -30%; note: % is set by controls: 0 for no effect and ±100 for the full control effect; compound concentration not given in the record
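Homogeneous bead-based format: GST-tagged E1A captured on glutathione donor beads, His-tagged CtBP on nickel acceptor beads; compounds precede bead addition by 2 h at 37 °C.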
Starred values were filed as active, the others as inactive; ? = inconclusive; nt = no result given; [ ] = remark or other dose.

Screens by letter: A = TRPV1 PAM; B = D2 ag; C = PINK1 expr mod; D = Sfp PPTase inh; E = D2 potentiator; F = Six1-Eya2 inh; G = CtBP-E1A blk
Cc1ccc(-c2csc(NC(=O)c3cccc(C)c3)c2C(=O)O)cc1
  A: nt; B: -2.1; C: -1.3%; D: nt; E: -3.1; F: -26.8; G: 1.2
COCCNC(=O)CN(C(=O)CCC(=O)Nc1nccs1)c1ccccc1OC
  A: 3.5; B: 1.4; C: -0.9%; D: 14.7%; E: 1.8; F: 10.9; G: 0.4
COC(=O)c1cc(CN2CCN(c3ccccc3)CC2)ccc1O
  A: 14.6; B: 5.7; C: 2.4%; D: -2.4%; E: -60.2; F: -3.4; G: nt
Cc1c(Br)cccc1NC(=O)c1sccc1-n1cccc1
  A: -10.9; B: -1.7; C: 2.4%; D: -19.1%; E: -9.8; F: -15.8; G: -0.1
CCN(CC)CCN(C)Cc1nc(C(c2ccccc2)c2ccccc2)no1
  A: ?; B: -3.2; C: -0.5%; D: 9.0%; E: -6.3; F: 3.0; G: -3.8
Cc1ccc(C(=O)OCC(=O)Nc2ccccc2C(F)(F)F)cc1S(=O)(=O)N1CCOCC1
  A: -14.6; B: -1.0; C: 1.5%; D: 13.4%; E: -5.2; F: 2.8; G: -0.2
NC(N)=N/N=C/c1ccccc1
  A: 3.9; B: -2.0; C: 0.3%[38.3 µM]; D: 8.2%; E: -4.8; F: -0.4; G: 0.3
C/C(=N\NC(=O)COc1cc(C)cc(C)c1)c1ccc(N2CCOCC2)cc1
  A: 1.6; B: 1.9; C: 2.8%; D: 2.6%; E: -4.8; F: 0.5; G: -0.7
CC(=O)c1ccc2c(c1)N(Cc1ccc3ccccc3c1)C(=O)C(C)S2 (stereo not given)
  A: nt; B: -2.6; C: 0.2%; D: nt; E: 1.4; F: -2.0; G: 1.7
CC1(C)Cc2cccc(OCC(=O)OCc3nnc(-c4ccccc4)o3)c2O1
  A: 20.5; B: -1.7; C: -0.9%; D: nt; E: -2.3; F: -3.8; G: -15.7
C#CCOc1ccccc1C(N)=O
  A: 6.7; B: -3.0; C: -0.3%; D: 16.5%; E: -10.5; F: 0.5; G: 6.4
O=C(c1ccc(NS(=O)(=O)c2ccc(F)cc2)cc1)N1CCN(c2ccccc2O)CC1
  A: -12.7; B: 8.9; C: 3.1%; D: 9.0%; E: ?; F: -0.4; G: -1.6
COc1ccccc1C(=O)Nc1ccc2nc3n(c(=O)c2c1)CCCC3
  A: 9.4; B: -4.0; C: -2.2%; D: 26.2%; E: 2.5; F: -2.7; G: -10.2
CC(C)N1CC(C(=O)Nc2cc(Cl)cc(Cl)c2)CC1=O (stereo not given)
  A: -22.9; B: -2.2; C: 5.5%; D: -4.3%; E: -6.7; F: 1.0; G: nt
Cc1nnc(SCc2ccccc2Cl)n(N)c1=O
  A: 28.1; B: -0.9; C: 1.4%; D: -2.9%; E: 1.6; F: 7.4; G: -11.9
CCC1(CC)NC(=O)N(CC(=O)OCC(=O)NC(=O)c2ccccc2OC)C1=O
  A: 2.7; B: -2.0; C: -2.9%; D: nt; E: -12.4; F: 0.3; G: 3.3
O=C(CN1C(=O)CSc2ncccc21)Nc1cccc(Cl)c1
  A: -12.9; B: -1.4; C: -1.7%; D: 1.6%; E: -22.5; F: -2.7; G: -15.5
O=C(CN1CCCN(S(=O)(=O)c2ccc(F)cc2)CC1)Nc1cccc(F)c1
  A: -1.7; B: 0.4; C: 0.1%; D: -11.2%; E: -6.6; F: -6.4; G: 0.6
Nc1c(C(=O)Nc2ccc(Cl)cc2)oc2ccccc12
  A: nt; B: -1.3; C: 5.2%; D: ?; E: -9.0; F: 2.1; G: -22.4
Cc1ccc(OCC(=O)Nc2ccc3oc(=O)ccc3c2)cc1C
  A: -8.4; B: 3.2; C: 10.7%; D: -7.6%; E: -0.9; F: 1.9; G: -9.4
c1csc(-c2ncc3ccccn23)c1
  A: 3.8; B: -1.4; C: 4.7%; D: -0.6%; E: -17.4; F: 3.6; G: -5.8
CN(C)CCC1c2ccc(Cl)cc2CCc2cccnc21 (stereo not given) (tested in a mixture with another compound)
  A: 18.1; B: -3.4; C: -1.4%; D: 1.9%; E: -9.7; F: -6.2; G: 0.0
O=C(O)CCCCCCCCc1cn(CC2CCCCC2)nn1
  A: 1.9; B: -2.7; C: 0.2%; D: 0.2%; E: -4.7; F: 15.2; G: -26.4
CC1CCCN(C2=NC(=O)/C(=C/c3cn(-c4ccccc4)nc3-c3cccc(S(=O)(=O)N(C)C)c3)S2)C1 (stereo not given)
  A: -3.4; B: -2.0; C: 1.1%; D: -2.4%; E: -3.2; F: 2.3; G: 5.9
COc1ccccc1CNC(=O)CCNS(=O)(=O)c1ccc2c(c1)CC(C)N2C(C)=O (stereo not given)
  A: 4.5; B: 7.3; C: -1.1%; D: 18.4%; E: -10.2; F: -0.8; G: 2.0

Later entries
Every second line gives: TRPV1 PAM | D2 ag | PINK1 expr mod | Sfp PPTase inh | D2 potentiator | Six1-Eya2 inh | CtBP-E1A blk
CN(C)S(=O)(=O)c1cccc(C(=O)Nc2ccccc2Cl)c1
 : 1.1 | -1.7 | -0.6%[38.3 µM] | 10.4% | -12.3 | 6.0 | 5.1
Cc1ccc(NC(=O)CCNC(=O)c2ccc(Cl)cc2)nc1
 : 12.2 | -3.8 | 0.9% | 1.8% | -19.9 | -6.5 | -12.4
C#CCN(C[C@@H]1[C@@H](OC(=O)NCc2ccccc2)[C@@H](OC(=O)NCc2ccccc2)Cn2c(=O)n(CCCCCC)c(=O)n21)S(=O)(=O)c1ccc(C)cc1
 : nt | -1.8 | -1.3% | nt | -4.7 | 0.1 | -9.6
CCOC(=O)C1C(=O)N(C(=O)c2ccc(OC)cc2)CC1c1ccccc1 (stereo not given)
 : -3.1 | -1.3 | ? | 16.0% | -3.6 | 0.2 | 7.2
CC(C)(C)NC(=O)CSc1nnc(-c2ccccn2)n1Cc1ccccc1
 : -5.6 | 0.1 | -0.8% | 2.6% | -3.6 | 0.1 | 3.8
COc1cc(/C=N\NC(=O)CC(=O)NCCc2ccccc2)ccc1O
 : 4.6 | 0.7 | 0.3% | 12.8% | -4.7 | 8.1 | 0.0
CC(=O)Nc1sc2c(c1C(c1cccs1)N1CCOCC1)CCCC2 (stereo not given)
 : -9.2 | -0.1 | 3.0% | 5.1% | -3.5 | 8.3 | -1.4
CCOc1cc(N2CCOCC2)c(OCC)cc1NC(=O)COc1ncnc2ccccc12
 : 9.9 | -2.8 | 0.7%[38.3 µM] | 1.8% | -8.7 | -7.7 | -1.1
Cc1[nH]nc2c1C(CC(C)C)C(C#N)=C(N)O2 (stereo not given)
 : 19.0 | 3.3 | -0.5% | ? | 3.6 | 21.4 | 0.0
COc1ccc(N2C(N)=NC(N)=NC2(C)C)cc1
 : 20.3 | -3.5 | 0.3% | 5.3% | -3.6 | -2.5 | -0.8
O=C(Cn1cncn1)N/N=C/c1ccc(Cl)cc1
 : 3.9 | 0.9 | 3.1% | 14.3% | -10.1 | 2.4 | 10.9
CC1CCCN(c2nc(-c3cccnc3)nc3scc(-c4ccccc4)c23)C1 (stereo not given)
 : -5.0 | 11.8 | 28.2µM* | -28.1% | -4.9 | 1.8 | -2.9
COc1ccc(-c2csc(Nc3ccccc3)n2)cc1
 : -22.3 | -1.4 | 7.6% | -3.7% | -3.4 | -9.0 | 6.4
Cc1ccc(CNC(=O)c2ccccc2NS(C)(=O)=O)cc1
 : 8.7 | -3.6 | 1.2% | 15.8% | -44.4 | 4.3 | -3.7
C=CCOc1ccc(C(c2c(C(=O)O)[nH]c3ccccc23)c2c(C(=O)O)[nH]c3ccccc23)cc1
 : -5.9 | 1.0 | 11.3% | -3.0% | -0.8 | -13.2 | -1.1
COc1cc(C(=O)NCC(=O)N/N=C/c2cccnc2)cc(OC)c1OC
 : -7.4 | -0.2 | -1.1% | 18.6% | -10.2 | 5.0 | 5.7
O=C(CSc1n[nH]c(-c2ccccc2)n1)Nc1ccc(N2CCOCC2)cc1
 : 6.6 | -6.5 | 7.9% | 3.1% | -0.9 | -7.2 | ?
COc1ccc(C)cc1NC(=O)CCS(=O)(=O)c1ccc2c(c1)CCN2C(C)=O
 : 13.6 | -0.3 | -0.5% | 9.4% | -0.2 | -1.7 | -17.1
CN(C)C(=S)Nn1c(-c2ccccc2)nc2ccccc2c1=O
 : 2.6 | -6.0 | 0.5% | 9.3% | -5.4 | 1.3 | 7.2
O=C(CSCc1nc2ccccc2[nH]1)N1CCN(c2ccc(F)cc2)CC1
 : 10.8 | -1.7 | 0.4% | ? | -27.1 | 21.1 | 0.0
CC(=O)Nc1ccc(NC(=O)c2ccc(-c3ccc([N+](=O)[O-])cc3)o2)cc1
 : -2.7 | 6.7 | -1.1% | -12.7% | -4.9 | -9.2 | -4.6

Rewritten as comma-separated lines: part of the list above
smiles,TRPV1 PAM,D2 ag,PINK1 expr mod,Sfp PPTase inh,D2 potentiator,Six1-Eya2 inh,CtBP-E1A blk
CC(C)(C)NC(=O)CSc1nnc(-c2ccccn2)n1Cc1ccccc1,-5.6,0.1,-0.8%,2.6%,-3.6,0.1,3.8
COc1cc(/C=N\NC(=O)CC(=O)NCCc2ccccc2)ccc1O,4.6,0.7,0.3%,12.8%,-4.7,8.1,0.0
CC(=O)Nc1sc2c(c1C(c1cccs1)N1CCOCC1)CCCC2 (stereo not given),-9.2,-0.1,3.0%,5.1%,-3.5,8.3,-1.4
CCOc1cc(N2CCOCC2)c(OCC)cc1NC(=O)COc1ncnc2ccccc12,9.9,-2.8,0.7%[38.3 µM],1.8%,-8.7,-7.7,-1.1
Cc1[nH]nc2c1C(CC(C)C)C(C#N)=C(N)O2 (stereo not given),19.0,3.3,-0.5%,?,3.6,21.4,0.0
